Compound activity (PubChem)
miR-21 FLuc – raises the signal of a miR-21 reporter. 340,000 tested, under 10 active. AID 2288. Potency, µM (series often up to 38.3 µM), inactives show top-dose reporter change, positive = more light. HeLa miR-21 FLuc reporter, luciferase, 48 h; active = well fitted rising curve with a large enough effect; inconclusive = small, poorly fitted or top-dose-only effect; inactive = no such curve, though single readings can be large or run the other way;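 also: % of control where 0% means no effect; miR-21 action dims this reporter so a rising signal means less miR-21 action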
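HeLa cells endogenously expressing miR-21, stably carrying CMV-driven firefly luciferase with a downstream miR-21 binding site, 2000 cells/well. Titrations up to approximately 40 uM, 48 hours; luciferase luminescence read.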
Rango-impB inh – prevents formation of the Rango-importin beta complex; Q14974; Rango CFP/YFP FRET sensor + importin beta, 45 min; Potency, µM (highest dose often 92.2 µM), for the others: at the highest dose inhibition of complex formation; 340,000 compounds, 0.031% hits; active = rising FRET ratio curve, often small or poorly fitted; inconclusive = mostly compound fluorescence or quenching in the first reads; inactive = flat curves in all reads;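 also: potency is read from the fitted curve at half-maximal effect; 0% = DMSO wells and 100% = buffer wells lacking importin beta; nearly all actives have a fitted effect of over 15% in size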
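FRET biosensor (snurportin 1 IBB flanked by EYFP and cerulean), 50 nM, with compound 5 min, then 0.125 microM importin beta in PBS, 1 mM DTT, 0.02% Tween-20, 0.1% BSA. CFP/YFP ratio read after 45 min at room temperature; pre-read flags interference.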
GLA inh pH 4.5 – alpha-galactosidase A (human) inhibition, pH 4.5; AID 1467; activity change, negative = inhibition, % at 105 µM; purified enzyme, 4-MU-alpha-Gal fluorescence, pH 4.5; 230,000 tested, under 10 active; inconclusive = small, poorly fitted or top-dose-only inhibition, or a rising curve; inactive = flat fitted curve, though single readings scatter; no compound was filed as active;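 also: 0% = full activity with enzyme and -100% = basal without enzyme; dose as in the result columns while the protocol names 77 µM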
Target sequence (P06280 whole entry, looked up): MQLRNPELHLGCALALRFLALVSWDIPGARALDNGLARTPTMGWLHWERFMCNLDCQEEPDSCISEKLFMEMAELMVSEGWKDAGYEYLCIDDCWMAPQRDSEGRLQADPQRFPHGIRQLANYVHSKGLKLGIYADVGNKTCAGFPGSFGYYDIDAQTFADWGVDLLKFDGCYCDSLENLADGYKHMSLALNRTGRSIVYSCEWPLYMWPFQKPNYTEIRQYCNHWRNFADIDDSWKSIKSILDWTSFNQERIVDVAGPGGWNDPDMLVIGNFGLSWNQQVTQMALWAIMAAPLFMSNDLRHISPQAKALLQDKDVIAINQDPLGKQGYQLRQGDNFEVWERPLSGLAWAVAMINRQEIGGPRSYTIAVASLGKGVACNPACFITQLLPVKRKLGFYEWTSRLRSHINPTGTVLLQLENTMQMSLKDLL
Rango dissoc inh – inhibitors of RanGTP-induced Rango-importin beta complex dissociation. O95149+P62826. Biochemical FRET Rango-importin beta, RanGTP-induced dissociation. Potency, µM (titrated, usually from 46.1 µM), for the others: at the highest dose activity change, negative = inhibition. 340,000 compounds, 0.071% hits; active means falling FRET ratio curve, often poorly fitted, with flat reads before Ran was added; inconclusive means other falling curves, or compound fluorescence or quenching; inactive means flat or rising ratio curve;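 also: potency is read from the fitted curve at half-maximal effect; % of control where 0% means no effect; nearly all actives have a fitted effect of over 45% in size; -100% = wells without RanGTP and RCC1; the record marks most hits as doubtful in a second field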
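Compounds sat 5 min at room temperature with 0.1 uM Rango biosensor plus 0.25 uM importin beta, then FRET pre-read. RanGTP-RCC1 (0.6 uM Ran, 2mM GTP, 0.2 uM RCC1) added for 45 min, and the CFP/YFP post-read measured blocked complex dissociation.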
The depositor's hits bear a star; ? = inconclusive; nt = no result given; & = joins results of further samples.

Field names: A = miR-21 FLuc; B = Rango-impB inh; C = GLA inh pH 4.5; D = Rango dissoc inh
O=C(NCCCn1ccnc1)C(=O)NCC(c1ccco1)N1CCN(c2ccccc2)CC1 (stereo not drawn)
  A = -4%	B = -1.5%	C = -7	D = 6%
CCn1c(SCC(=O)Nc2cccc(OC)c2)nc2ccccc2c1=O
  A = 1%	B = -2.0%	C = nt	D = -4%
COc1ccc(Nc2cc(Cl)ccc2C(=O)O)cn1
  A = 1%	B = -1.2%	C = -2	D = -12%
Cc1nc2ccccn2c1/C(O)=C1\C(=O)C(=O)N(CCN2CCOCC2)C1c1ccncc1 (stereo not drawn)
  A = -4%	B = ?	C = -1	D = ?
CC(=O)c1c(N2CCOCC2)nc2ccc(Cl)cc2c1-c1ccccc1
  A = 3%	B = 0.2%	C = -6	D = 0%
CCOc1ccc(C(CCc2ccccc2)NC(=O)c2ccccc2F)cc1OCC (stereo not drawn)
  A = -1%	B = 4.3%	C = -5	D = -13%
COc1ccc(CC(=O)NC(c2ccccc2)c2ccccc2)cc1S(=O)(=O)N1CCOCC1
  A = 2%	B = 1.4%	C = -2	D = -2%
O=C(CN1CCCN(S(=O)(=O)c2ccc(F)cc2)CC1)Nc1c(Cl)cccc1Cl
  A = 8%	B = 2.9%	C = nt	D = 34%
COc1cccc(C(=O)N2N=C(c3cccc(OC)c3)CC2(O)C(F)(F)F)c1 (stereo not drawn)
  A = -6%	B = -1.7%	C = 2	D = 14%
CCOC(=O)N1CCN(C(=O)CCNS(=O)(=O)c2cc(Br)cnc2N)CC1
  A = 2%	B = ?	C = -19	D = 1%
COc1ccc(-c2nnc(SCC(=O)NCCc3ccccc3)o2)cc1
  A = -8%	B = 0.1%	C = 2	D = 3%
O=C(Nc1ccc(S(=O)(=O)N2CCCCC2)cc1)c1ccccc1Cl
  A = -3%	B = 0.3%	C = -4	D = -8%
CC(=O)c1ccc(NC(=O)C(C)NCc2ccccc2Cl)cc1 (stereo not drawn)
  A = -16%	B = 2.5%	C = 2	D = 0%
O=C(O)c1ccc(-c2noc(-c3ccccc3F)n2)cc1
  A = nt	B = -4.6%	C = nt	D = 14%
CC1(C)CCCN(Cc2c(O)ccc3c(=O)c(-c4nc5ccccc5s4)c(N)oc23)C1
  A = -52%	B = ?	C = -4	D = -9%

Following part.
Field names: A = miR-21 FLuc; B = Rango-impB inh; C = GLA inh pH 4.5; D = Rango dissoc inh
O=C(O)c1ccccc1C(c1ccc(O)cc1)c1ccc(O)cc1
  A = 0%	B = 0.6%	C = nt	D = 21%
CCC(CO)Oc1cc(NC(=O)c2ccccc2C)c2ncn(C(C)C)c2c1 (stereo not drawn)
  A = nt	B = -1.5%	C = nt	D = 0%
Cc1[nH]c2ccccc2c1/C=N/NC(=O)Nc1ccccc1
  A = -24%	B = -2.8%	C = 0	D = -20%
Cc1cc(C)n(-c2nnc(Cl)c3ccccc23)n1
  A = 2%	B = 2.8%	C = 5	D = 3%
CCCC(=O)N(C)c1nnc(-c2ccc(OC)cc2)s1
  A = -27%	B = -0.1%	C = -2	D = -25%
CC(OC(=O)C1CCN(S(=O)(=O)c2ccccc2)CC1)C(=O)Nc1ncc(Cl)cc1Cl (stereo not drawn)
  A = -4%	B = -4.9%	C = -7	D = 5%
COc1ccc(N2CCN(S(=O)(=O)c3ccc(-n4cnnn4)c(C)c3)CC2)cc1
  A = 0%	B = -2.5%	C = -2	D = 13%
CCCCOC(=O)c1[nH]c2c(c1C)C(=O)CC(c1cc(OC)c(OC)c(OC)c1)C2 (stereo not drawn)
  A = 27%	B = 2.7%	C = -3	D = 0%
CCOC(=O)c1oc2cc(O)cc(C)c2c(=O)c1-c1cscn1
  A = -5%	B = -0.1%	C = nt	D = -4%
CCOC(=O)Cc1csc(NC(=O)CCNS(=O)(=O)c2ccc3c(c2)CCC(=O)N3)n1
  A = -5%	B = -0.5%	C = 2	D = 12%
C/C=C(\C)C(=O)NCCN1C2=NC[C@@H](C)N2C[C@H]1Cc1ccc(O)cc1
  A = -2%	B = -2.3%	C = 1	D = -19%
N#CNC1=NCN(Cc2ccccc2)CN1
  A = -1%	B = -3.4%	C = 12	D = -13%
COc1ccc(OC)c(CN(CCN2CCOCC2)C(=O)Nc2cccc(Cl)c2)c1
  A = -5%	B = -0.4%	C = -1	D = 9%
Brc1cccc(-c2nnc(SCc3ccon3)n2-c2ccccc2)c1
  A = 0%	B = -0.3%	C = -12	D = -18%
C/C=C/c1ccc(OCCN2C(=O)NC(C)(C)C2=O)c(OC)c1
  A = -11%	B = -1.1%	C = 3	D = 8%

Additional results.
SMILES | miR-21 FLuc | Rango-impB inh | GLA inh pH 4.5 | Rango dissoc inh
CC(C)CNc1nc(Oc2ccc(=O)[nH]n2)nc(N(C)C)n1 | -6% | 0.4% | 2 | -4%
CCN(CC)S(=O)(=O)c1cc(NS(=O)(=O)c2cccc(Cl)c2Cl)ccc1C | 14% | 3.0% | -9 | 9%
CCN(Cc1ccc(OC)c(F)c1)C(C)C(=O)Nc1ccc(S(=O)(=O)N2CCCC2)cc1 (stereo not drawn) | nt | ? | nt | 12%
Cc1ccc(C2C3=C(CC(C)(C)CC3=O)NC3=C2C(=O)c2ccccc23)cc1 (stereo not drawn) | 10% | -1.8% | -14 | -3%
COc1ccc(OC)c(NC(=O)CCn2cccc2)c1 | -4% | 0.0% | 1 | 7%
O=C(COC(=O)CCCN1C(=O)c2ccccc2C1=O)Nc1cc(Cl)cc(Cl)c1 | -9% | -0.8% | -2 | 3%
COc1cccc(C(=O)NCCS(=O)(=O)NCCc2ccccc2)c1 | nt | 0.3% | nt | -3%
O=C(NCc1ccccc1)N(Cc1cc2cc3c(cc2[nH]c1=O)OCCO3)CC1CCCO1 (stereo not drawn) | 0% | -5.5% | 6 | -18%

(next part)
SMILES | miR-21 FLuc | Rango-impB inh | GLA inh pH 4.5 | Rango dissoc inh
O=C(Cn1cnnn1)OCC(=O)c1ccc(Cl)s1 | 1% | -0.3% | -11 | 1%
CCOc1ccc(/C(CC)=N/NC(=O)C2(C)CC2(Br)Br)cc1 (stereo not drawn) | -1% | -1.4% | -1 | -1%
CC(=O)N1CCN(S(=O)(=O)c2cccc(C(=O)N(C)Cc3ccc(C)o3)c2)CC1 | nt | -5.1% | nt | 7%
S=c1[nH]nc(Cc2cccs2)n1-c1ccccc1Cl | 0% | -0.3% | 5 | 9%
CCc1noc(C)c1C(=O)Nc1sc(C(=O)N(C)C)c(C)c1C(=O)OC | -2% | 4.7% | -2 | -5%
O=C(NCCCO)c1ccc(CSc2nc3ccccc3[nH]2)cc1 | -26% | -2.2% | 9 | -4%
CC(C)c1nnc(NC(=O)CCC(=O)NCCc2ccccc2)s1 | -1% | -1.1% | 1 | 5%
O=C(CSc1nnnn1C1CCCCC1)NCc1ccccc1 | -9% | -0.2% | 7 | 6%

Continuation.
SMILES | miR-21 FLuc | Rango-impB inh | GLA inh pH 4.5 | Rango dissoc inh
Cc1c(NC(=O)C(C)OC(=O)/C=C/c2ccccc2)c(=O)n(-c2ccccc2)n1C (stereo not drawn) | 2% | -1.1% | 11 | 0%
CCOC(=O)CNc1nc2ccccc2n2c(C)nnc12 | -5%&3% | -1.0% | 3 | 2%
OCC1N=C(c2ccccn2)OC1c1ccccc1 (stereo not drawn) | 0% | -1.7% | 7 | 3%
CCOc1ccc(NC(=O)Nc2ccc3c(c2)N(C)C(=O)CS3)cc1 | 19% | -4.5% | 3 | 15%
CC1CC(C)CN(C(=O)c2ccc(C(=O)c3ccccc3)cc2)C1 (stereo not drawn) | nt | 0.6% | nt | 6%
O=C(Nc1nnc(-c2cccs2)o1)c1cccc(F)c1 | nt | 0.7% | nt | 5%
Cc1nc2ccc(S(=O)(=O)NCC(=O)N3CCCC(C)C3)cc2s1 (stereo not drawn) | -1% | 0.5% | 2 | -9%
Cc1ccc2c(N)c(C(=O)N(c3ccccc3)c3ccccc3)sc2n1 | -6% | ? | -4 | ?

(more compounds)
SMILES | miR-21 FLuc | Rango-impB inh | GLA inh pH 4.5 | Rango dissoc inh
CC(C)(C)C(=O)NC1(C(F)(F)F)NC(=O)N(c2ccccc2F)C1=O (stereo not drawn) | -2% | 0.6% | -8 | -8%
Cc1ccnc(NC(=O)CSc2ccc3c(c2)OCCO3)c1 | nt | 7.9% | nt | 0%
Cc1nnc(NCCc2ccccc2)c2ccccc12 | -52% | 2.7% | nt | -3%
Cc1ccc(O)c(NC(=O)CSc2n[nH]c(C)c2[N+](=O)[O-])c1 | 2% | -0.2% | -3 | -1%
CCc1ccc(OCC(=O)NNC(=O)Cc2c(F)cccc2Cl)cc1 | nt | 1.6% | nt | -13%
Cc1ccc(C(=O)NNC(=S)NC(=O)c2ccccc2)cc1 | nt | 4.0% | nt | 2%
Cc1sc(NC(=O)CSc2nnc(-c3ccc(F)cc3)o2)c(C#N)c1C | -33% | -2.4% | 2 | -5%
CCCNC(=O)C(CC)NC(=O)c1cccc([N+](=O)[O-])c1 (stereo not drawn) | nt | -0.3% | nt | -7%

Other compounds:
SMILES | miR-21 FLuc | Rango-impB inh | GLA inh pH 4.5 | Rango dissoc inh
O=C(Nc1ccc(Cl)c(S(=O)(=O)N2CCOCC2)c1)c1cn2ccccc2n1 | 0% | -2.3% | -21 | 2%
CCN(CC)c1ccc(NC(=O)c2ccc(Br)o2)cc1 | -44% | 3.0% | -2 | -11%
CC(C)c1ccc(NC(=O)c2cc(Br)ccc2Br)cc1 | -32% | -1.2% | 2 | -15%
O=C(CSc1nnc(-c2ccc(Cl)cc2)n1-c1ccc(Cl)cc1)N/N=C/c1ccco1 | -9% | -0.1% | 0 | 29%
CC1(NC(=O)CCNC(=O)c2ccc(C(C)(C)C)cc2)CCS(=O)(=O)C1 (stereo not drawn) | nt | 2.7% | nt | -14%
CC(OC(=O)c1ccco1)C(=O)NC1CCCC1 (stereo not drawn) | 0% | 0.0% | nt | 0%

Among those listed so far, these have an aryl methoxy group:
SMILES | miR-21 FLuc | Rango-impB inh | GLA inh pH 4.5 | Rango dissoc inh
CCn1c(SCC(=O)Nc2cccc(OC)c2)nc2ccccc2c1=O | 1% | -2.0% | nt | -4%
COc1ccc(Nc2cc(Cl)ccc2C(=O)O)cn1 | 1% | -1.2% | -2 | -12%
COc1ccc(CC(=O)NC(c2ccccc2)c2ccccc2)cc1S(=O)(=O)N1CCOCC1 | 2% | 1.4% | -2 | -2%
COc1cccc(C(=O)N2N=C(c3cccc(OC)c3)CC2(O)C(F)(F)F)c1 (stereo not drawn) | -6% | -1.7% | 2 | 14%
COc1ccc(-c2nnc(SCC(=O)NCCc3ccccc3)o2)cc1 | -8% | 0.1% | 2 | 3%
CCCC(=O)N(C)c1nnc(-c2ccc(OC)cc2)s1 | -27% | -0.1% | -2 | -25%
COc1ccc(N2CCN(S(=O)(=O)c3ccc(-n4cnnn4)c(C)c3)CC2)cc1 | 0% | -2.5% | -2 | 13%
CCCCOC(=O)c1[nH]c2c(c1C)C(=O)CC(c1cc(OC)c(OC)c(OC)c1)C2 (stereo not drawn) | 27% | 2.7% | -3 | 0%
COc1ccc(OC)c(CN(CCN2CCOCC2)C(=O)Nc2cccc(Cl)c2)c1 | -5% | -0.4% | -1 | 9%
C/C=C/c1ccc(OCCN2C(=O)NC(C)(C)C2=O)c(OC)c1 | -11% | -1.1% | 3 | 8%
CCN(Cc1ccc(OC)c(F)c1)C(C)C(=O)Nc1ccc(S(=O)(=O)N2CCCC2)cc1 (stereo not drawn) | nt | ? | nt | 12%
COc1ccc(OC)c(NC(=O)CCn2cccc2)c1 | -4% | 0.0% | 1 | 7%
COc1cccc(C(=O)NCCS(=O)(=O)NCCc2ccccc2)c1 | nt | 0.3% | nt | -3%

An excerpt; count on the stated rates, not on these rows.
